Bioassay records deposited in PubChem by several laboratories.
Hsc70 ATP site: Hsc70 inhibitors, probe displacement, primary screen, biochemical, fluorescence polarization (AID 568); Hsc70 fluorescence polarization, probe displacement; higher % means a stronger effect; strong numbers were not always called active; displacement, % at 20 µM; hits with a dose series show IC50 in µM; 83,000 tested, under 10 active;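 active = displacement above 50% without optical interference and an IC50 on retest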;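 note: ATPase domain with a fluorescein-tagged ATP probe; 0% = vehicle and 100% = excess ADP; read after one hour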
MT1-MMP reporter: inhibitors of MT1-MMP promoter transcription, cell-based, luciferase reporter, luminescence (AID 618); calls from a first round at 10 µM; hits with a dose series show EC50 in µM; hit rate 0.62% among 87,000; MT1-MMP promoter luciferase reporter cells, luminescence;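 active = over half of the reporter light lost at 10 µM or EC50 under 50 µM; inactive = the rest and hits that failed the dose series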;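 note: actives suppress MT1-MMP promoter-driven transcription so potencies describe inhibitors; HT1080 fibrosarcoma cells; overnight exposure; toxic or luciferase-blocking compounds were not removed from the actives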
WNV NS2B-NS3 inh: inhibitors of WNV NS2B-NS3 protease, primary screen, biochemical, fluorogenic substrate; Genome polyprotein (West Nile virus), P06935; fluorogenic substrate Ex360/Em465; hits give low values; z-score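 (tested at a level between 10 and 100 µM)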; hit rate 0.18% among 65,000;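 active = z-score at -3 or under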;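 note: score is relative to mean and spread of the compound wells of a plate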
Target sequence (P06935 1371-1501 limits assumed): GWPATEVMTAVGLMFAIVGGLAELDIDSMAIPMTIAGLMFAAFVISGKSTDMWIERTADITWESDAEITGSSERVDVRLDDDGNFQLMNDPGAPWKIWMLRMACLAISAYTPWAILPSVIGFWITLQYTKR
Target sequence (P06935 1502-1679 limits assumed): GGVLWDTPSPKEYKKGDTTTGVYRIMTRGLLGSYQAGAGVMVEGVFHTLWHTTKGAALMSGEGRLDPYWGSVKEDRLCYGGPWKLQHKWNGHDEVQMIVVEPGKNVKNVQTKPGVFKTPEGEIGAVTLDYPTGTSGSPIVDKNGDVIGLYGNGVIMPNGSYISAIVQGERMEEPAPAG
* marks the source's active call; other numbers are inactive results; i = inactive; / = not tested or not shown. Some of the compounds tested; rates above refer to the full screens.

SMILES | Hsc70 ATP site | MT1-MMP reporter | WNV NS2B-NS3 inh
COc1ccc(N2CCN(S(=O)(=O)/C=C/c3ccccc3)CC2)cc1 | -4.8% | i | -0.27
O=C(Nc1cccc(C(F)(F)F)c1)NC1CCCCC1 | -1.1% | i | /
COc1cc(-c2nc(N)n[nH]2)cc(OC)c1OC | -5.9% | i | 0.51
O=C(Cn1c(=O)sc2ccccc21)NCc1ccccn1 | 5.8% | i | 0.27
CCn1c(=S)sc2c(=O)n(-c3ccccc3)c(SCC(=O)NCc3ccco3)nc21 | 1.3% | i | -0.91
CCc1nc2oc3cc(OC)ccc3c(=O)c2c(=O)n1-c1ccccc1 | -3.8% | i | -0.0045
Cc1ccc(NC(=O)N2CCCC2C(=O)NCc2cccs2)cc1 (stereo not given) | 4.7% | i | /
CCOc1ccc(-c2nnc3ccc(SC)nn23)cc1 | 5.7% | i | 1.6
COC(=O)c1ccc(-c2nc(-c3cccs3)no2)cc1 | -3.4% | 1.1µM* | 0.45
CC(C)N(Cc1nc(-c2ccc(Cl)cc2)no1)C(=O)CCC1CCCC1 | 3.7% | i | 0.33
O=C(NCc1ccco1)c1sc(=S)n2c1[nH]c(=O)c1ccccc12 | 6.3% | i | -0.71
CSc1nc(NCCOCCO)c2sc3nc(-c4ccco4)c4c(c3c2n1)CCC4 | -33% | i | 2.7
COc1ccc(CC(=O)NC(C)c2nnc(SCC(=O)Nc3nc(C)cs3)n2C)cc1 (stereo not given) | -5.1% | i | 0.83
Cc1cc(NC(=O)CN2CCCC(C)C2)n(-c2nc3ccccc3s2)n1 (stereo not given) | 1.6% | i | /
CCS(=O)(=O)c1nnnn1-c1ccccc1S(C)(=O)=O | -7.4% | i | -0.55
CCC(Sc1ccc2nnc(-c3ccc(F)cc3)n2n1)C(=O)O (stereo not given) | 0.0% | i | 0.39
CCOC(=O)c1oc2ccccc2c1NC(=O)c1ccc(S(=O)(=O)N2CCCC2)cc1 | -0.3% | i | 0.22
O=C(c1ccc(COc2c(F)c(F)cc(F)c2F)o1)N1CCN(c2ccc(Cl)cc2)CC1 | -3.2% | i | 0.74
CC1CCN(S(=O)(=O)c2ccc3c(c2)C(=NO)c2cc(S(=O)(=O)N4CCC(C)CC4)ccc2-3)CC1 | -2.2% | i | /
O=C(CCNS(=O)(=O)c1cccc2nonc12)NC1CCCc2ccccc21 (stereo not given) | -3.3% | i | 0.74
O=C(CCCCn1c(=O)[nH]c2ccsc2c1=O)NCc1cccnc1 | 2.0% | i | -0.8
Cc1cc(S(=O)(=O)N2CCCCCC2)c(Cl)cc1Cl | -26% | i | /
CN1CCN(S(=O)(=O)c2ccc(NC(=O)c3cccc(S(=O)(=O)N4CCCC4)c3)cc2)CC1 | -5.0% | i | 0.09
CC1CCc2sc3ncn4nc(C(=O)NCc5ccco5)nc4c3c2C1 (stereo not given) | -4.1% | i | 0.13
CS(=O)(=O)N1CCN(c2cccc(Cl)n2)CC1 | 5.5% | i | /
COC(=O)CSc1n[nH]c(-c2cccnc2)n1 | -0.5% | i | /
O=C(CCN1C(=O)C2C3C=CC(C3)C2C1=O)NC1CCCc2ccccc21 (stereo not given) | 3.2% | i | -0.88
CC1CCCN(c2ccc(C(=O)NCc3cccs3)cn2)C1 (stereo not given) | -0.2% | i | -0.1
CC1(C)CC(=O)C2=C(C1)OC(c1ccncc1)C(C#N)=C2N (stereo not given) | -1.3% | i | -1.2
CCN(CC)C(=O)CSc1nnc(CCCCCNC(=O)OC(C)(C)C)o1 | -1.0% | i | 0.4
COC(=O)c1ccc(CSc2nc(-c3ccc(OC)cc3)nc3c2c(=O)n(C)c(=O)n3C)o1 | 3.1% | i | 0.88
Cc1cc(N)n2ncc(-c3cccc(Br)c3)c2n1 | 0.5% | i | 1.9
COC(=O)c1ccccc1NC(=O)CN(Cc1ccc(Cl)cc1)S(C)(=O)=O | -2.6% | i | /
Cc1ccc(-n2ncc3c(N4CCCC4)ncnc32)c(C)c1 | -1.0% | i | -0.73
CCSc1nnc(NC(=O)C(CC)Oc2ccccc2)s1 (stereo not given) | -1.4% | i | 0.71
COc1ccc(-n2c(SC3CCOC3=O)nc3ccccc32)cc1 (stereo not given) | 1.8% | i | -0.15
COc1ccc(-c2nnc(SCCC(=O)O)n2-c2ccccc2)cc1 | 2.1% | i | 0.54
COc1ccc(-c2noc(-c3ccccc3-c3ccccc3)n2)cc1OC | -1.5% | i | 0.71
CCC(c1nnnn1CCOC)N1CCN(C(=O)c2ccco2)CC1 (stereo not given) | 3.0% | i | -0.57
COc1ccc(N2CCN(C(=O)CC3NC4CCCCC4NC3=O)CC2)cc1 (stereo not given) | 7.9% | i | -0.36
COC(=O)C1=C(C)N=C2SCCC(=O)N2C1/C=C/c1ccccc1 (stereo not given) | 1.3% | i | 0.31
COc1ccc(CCNC(=O)CN(C)S(=O)(=O)c2cccc3nsnc23)cc1OC | -5.3% | i | -0.78
Cc1ccc(NC(=S)C2=C(O)c3sccc3N(C)S2(=O)=O)cc1 | -1.1% | i | /
C=CCn1c(C#N)c(N)sc1=N | -3.7% | i | 0.09
CCOCCCn1c(=S)[nH]c2cc3c(cc2c1=O)OCO3 | -0.4% | i | -0.28
CCC(=O)Nc1sc2c(c1C#N)CC(C)(C)NC2(C)C | 6.1% | i | -0.48
COCCn1c(SCCN2CCCCC2)nc2ccccc2c1=O | 22% | i | 0.55
CCOC(=O)c1cc2c(nc1N)CC(C)(CC)OC2 (stereo not given) | 3.7% | i | /
Cc1ccc2[nH]c(C(=O)O)c(NC(=O)CN3CCN(c4cccc(C)c4C)CC3)c2c1 | 1.5% | i | 0.14
CCc1nccn1S(=O)(=O)c1ccc(Br)cc1Br | -5.3% | i | -0.5
The list continues:
SMILES | Hsc70 ATP site | MT1-MMP reporter | WNV NS2B-NS3 inh
Cn1c([N+](=O)[O-])cnc1COC(N)=O | -1.9% | i | 0.1
CCc1ccc(N(CC(=O)O)S(=O)(=O)c2c(C)noc2C)cc1 | -1.2% | i | -2.5
CCN(CC)c1ccc(C(=O)OCC(=O)c2ccco2)cc1 | 0.2% | i | 1.6
CCn1c(=O)c2cc(C(=O)N3CCN(C(=O)c4ccco4)CC3)sc2c2ccccc21 | -6.2% | i | -0.97
Cc1[nH]nc2c1C1(CCN(C(=O)OCc3ccccc3)CC1)C(C#N)=C(N)O2 | -1.9% | i | 1.1
Cc1noc(C)c1S(=O)(=O)N1CCC(C(=O)N2CCN(c3ccccc3Cl)CC2)CC1 | 1.4% | i | -1.1
O=C1/C(=C/c2ccc(F)c(F)c2)CSc2sccc21 | 0.5% | i | /
Cc1cc(NS(=O)(=O)c2ccc(NC(=O)C(c3ccccc3)c3ccccc3)cc2)no1 | 2.4% | i | /
NC(=O)COc1ccc(NC(=O)OCc2ccccc2)cc1 | -1.7% | i | 1.4
COc1ccc2nc(SCC(=O)Nc3cc(C)on3)[nH]c2c1 | 3.9% | i | /

Continued (2 carried over from the part before).
SMILES | Hsc70 ATP site | MT1-MMP reporter | WNV NS2B-NS3 inh
NC(=O)COc1ccc(NC(=O)OCc2ccccc2)cc1 | -1.7% | i | 1.4
COc1ccc2nc(SCC(=O)Nc3cc(C)on3)[nH]c2c1 | 3.9% | i | /
Cn1c(CSc2ncccn2)nnc1SCC(=O)N1CCCc2ccccc21 | 2.1% | i | 0.97
CCn1c(C)nc2cc(C(=O)NNS(=O)(=O)c3ccccc3F)ccc21 | -6.1% | i | /
C=CCOC(=O)C(C#N)c1nc2ccccc2nc1N1CCN(Cc2ccccc2)CC1 (stereo not given) | -1.7% | i | 0.53
CC1=C(C(=O)N2CCCCCC2)C2(CCC(C)CC2)OC1=O (stereo not given) | -2.6% | i | -0.1
COc1cc2c(cc1OC)C(C)N(C(=O)c1cc3n(n1)C(C(F)(F)F)CC(c1ccco1)N3)CC2 (stereo not given) | -5.8% | i | 1.2
Cc1ccccc1N1C(=O)C2ON(c3ccccc3)C(c3ccncc3)C2C1=O (stereo not given) | -8.3% | i | 0.32
Cc1ccccc1NC(=O)C1CCN(c2cc(-c3ccccc3)nc3ncnn23)CC1 | 6.3% | i | /
CCOC(=O)c1sc2c(c1C)c(=O)c(C(=O)OCC)cn2CC | -5.7% | i | -0.13
CCOc1ccc2nc(NCCNC(=O)Nc3cccc(C)c3)c(C#N)cc2c1 | -1.3% | i | 0.24
Nc1nnc(CCS(=O)(=O)c2cc(Cl)ccc2Cl)s1 | 3.2% | i | 0.19
CC1(C)CC(NC(=O)CCC2CCCC2)CC(C)(C)N1 | -3.0% | i | 1
O=C1COc2ccc(C(=O)NCc3ccco3)cc2N1 | -2.0% | i | 0.74
COC(=O)[C@H](Cc1ccccc1)NC(=O)N1CCC(C)CC1 | -1.3% | i | /
C=CCn1c(COc2ccc(F)cc2)nnc1SCC(=O)N1CC(=O)Nc2ccccc21 | 0.7% | i | /
CCNC(=O)CSc1ncnc2sccc12 | -3.8% | i | /
CN(C)c1nc(-c2ccccn2)nnc1-c1ccccc1 | 5.0% | i | /
Cc1cc(C)nc(N2CCCC(C(=O)Nc3nnc(C(C)C)s3)C2)n1 (stereo not given) | 6.5% | i | /
CC1CCc2nc3ccc(S(=O)(=O)N4CCC(C(=O)NC5CCCC5)CC4)cc3c(C(=O)O)c2C1 (stereo not given) | 7.3% | i | 1.4
CCCCOC(=O)n1c(SCC(=O)N(C)C)nc2ccccc21 | -3.2% | i | 0.36
Cc1occc1-c1nnc2sc(-c3ccc(-c4ccc(Cl)cc4)o3)nn12 | 1.2% | i | -0.7

Compound profiles, from the list above.
`Cc1cc(S(=O)(=O)N2CCCCCC2)c(Cl)cc1Cl` is entered as Hsc70 ATP site = -26%; MT1-MMP reporter = i; WNV NS2B-NS3 inh = /
`O=C(NCc1ccco1)c1sc(=S)n2c1[nH]c(=O)c1ccccc12` is entered as Hsc70 ATP site = 6.3%; MT1-MMP reporter = i; WNV NS2B-NS3 inh = -0.71
`O=C(Nc1cccc(C(F)(F)F)c1)NC1CCCCC1` is entered as Hsc70 ATP site = -1.1%; MT1-MMP reporter = i; WNV NS2B-NS3 inh = /

Continuation.
SMILES | Hsc70 ATP site | MT1-MMP reporter | WNV NS2B-NS3 inh
C=CCc1cc(C)ccc1OCCn1ccnc1 | -2.3% | i | /
O=C(CCN1C(=O)C2C3C=CC(C3)C2C1=O)NCc1cccnc1 (stereo not given) | 4.7% | i | -0.21
Cc1ccc(-c2nnc(N3CCN(S(C)(=O)=O)CC3)c3ccccc23)cc1 | -1.3% | i | -0.46
CC(C)OCCCNC(=O)c1sc(=S)n(C)c1N | -7.5% | i | -0.52
COc1ccc(S(C)(=O)=O)cc1S(C)(=O)=O | -3.4% | i | 1.8
O=C(Nc1cnc2ccccc2c1)c1ccco1 | -7.7% | i | -0.63
OC(CN1CCN(c2ccccc2)CC1)c1ccc2c(c1)CCN2 (stereo not given) | 3.5% | i | -0.16
CC(=O)N1CCC(N(C(=O)Nc2ccc(C)c(C)c2)C2CCCC2)CC1 | -4.0% | i | 0.61
COc1ccc2c(CC(=O)OCC(=O)NC(=O)c3cccn3C)coc2c1 | -0.2% | i | /
O=S(=O)(c1ccc(F)cc1)N1CCC(O)(c2ccc3c(c2)OCO3)CC1 | -1.1% | i | -1.5

Sorted by molecular weight (smallest number first): some entries from above
SMILES | Hsc70 ATP site | MT1-MMP reporter | WNV NS2B-NS3 inh
O=C(CCCCn1c(=O)[nH]c2ccsc2c1=O)NCc1cccnc1 | 2.0% | i | -0.8
CCOc1ccc2nc(NCCNC(=O)Nc3cccc(C)c3)c(C#N)cc2c1 | -1.3% | i | 0.24
Cc1ccccc1NC(=O)C1CCN(c2cc(-c3ccccc3)nc3ncnn23)CC1 | 6.3% | i | /

More structures follow:
SMILES | Hsc70 ATP site | MT1-MMP reporter | WNV NS2B-NS3 inh
CCCCOC(=O)C(NC(=O)c1ccccc1)=C(C)C | -0.4% | i | /
CCN1CCc2c(sc3c2c(NCc2ccco2)nc2nnnn23)C1 | 29% | i | 0.05
Cc1ccc2nc(-c3ccc(S(=O)(=O)N4CCOCC4)cc3)cn2c1 | -1.5% | i | -0.16
Cc1ccc(C(=O)NCCCN2CCOCC2)cc1N1CCCC1=O | -1.2% | i | -0.6
Cc1cc(C(=O)COC(=O)CN(C)S(=O)(=O)c2ccc(Cl)cc2)c(C)n1CC1CCCO1 (stereo not given) | 3.2% | i | 0.75
CCCCOc1ccc(S(=O)(=O)NC(=O)NCc2ccc(OCCC)cc2)cc1 | 0.7% | i | /
O=C(CCCc1ccccc1)NCc1cccnc1 | 2.4% | i | 1.2
Cc1ccc2c(CN3CCN(S(=O)(=O)c4ccc5c(c4)OCCO5)CC3)cc(=O)oc2c1C | -5.7% | i | 0.53
CN(C(=O)c1ccno1)c1nnc(-c2cnccn2)s1 | 1.2% | i | 0.38
CC(C)(C)NC(=O)C(c1ccco1)N(C(=O)Cn1nnc(-c2ccc(F)cc2)n1)c1cccc(F)c1 (stereo not given) | 1.2% | i | -1.2
Cc1cc(C(=O)Nc2sc3c(c2C#N)CCCC3)no1 | -0.9% | i | -0.41
Cc1cc(=O)oc(C)c1C(=O)Nc1ccc2nsnc2c1 | 2.7% | i | 0.32
COc1ccc(C(c2nnnn2CC2CCCO2)N2CCN(c3ccccc3)CC2)cc1 (stereo not given) | 11% | i | 0.28
O=[N+]([O-])c1cc(S(=O)(=O)N2CCCC2)ccc1N/N=C/c1cccs1 | -2.2% | i | /
